# Vaccinia pol inh: vaccinia E9 polymerase processive synthesis inhibition; normalized absorbance, % (no concentration beside the values); in vitro processive DNA synthesis, absorbance read-out; active compounds read low; some inactives read as strong as hits; actives 0.94% (n = 46,000);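 active = replicate mean up to 90% and picked by the depositor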;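 also: 100% = median of the test wells of a plate; 100 nL library stock went into each well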
# Numbers without * were called inactive; & = joins results of further samples. Some of the compounds tested. The share of hits here may be higher or lower than overall.
SMILES,Vaccinia pol inh
C=CCN1C(=O)C(Cc2c[nH]c3ccccc23)NC1=S (stereo not drawn),99.7
c1ccc2[nH]c(-c3nc4ccccc4s3)nc2c1,98.9
N#Cc1ccccc1Cn1c(=O)n(Cc2ccc(C(=O)NCc3ccco3)cc2)c(=O)c2sccc21,100.6
CC(C)C(NC(=O)c1ccc(F)cc1)C(=O)OCc1ccccc1 (stereo not drawn),91.8
CCOC(=O)C1C(=O)C=C(c2cccs2)CC1c1ccc(F)cc1 (stereo not drawn),93.1
COc1ccc2c(c1)c(C#N)c1n2CCN=C1N(C)C,104.6
Cc1ccnc(NS(=O)(=O)c2ccc(NC(=O)/C=C/c3ccccc3)cc2)n1,100.4
C=CCn1c(C2CC(=O)N(c3ccccc3)C2)nc2ccccc21 (stereo not drawn),101.1
O=C(Cc1c(F)cccc1Cl)OCC(=O)c1ccccc1,95.3
CC(=O)N(C(C)=O)c1cc(C)c(C#N)c2nc3ccccc3n12,106.8
O=C1c2ccccc2C2CC(c3cc(Cl)ccc3Cl)=NN12 (stereo not drawn),99.0
O=C(NCC1CCCO1)C1CCCCC1 (stereo not drawn),109.0
O=C(O)c1ccc(N=C2NC(=O)C(CO)(CO)S2)cc1,101.0
CCN(CC)c1ccc(NC(=O)c2ccccc2C(=O)O)cc1,107.0
Cc1ccc(Cc2ccc(NN)nn2)cc1,96.3
O=C(/C=C/c1ccccc1)C1=C(O)C(=O)N(c2ccccc2)C1c1ccccc1 (stereo not drawn),98.4
COC(=O)c1ccc(OCC(O)CN2C(C)(C)CC(O)CC2(C)C)cc1 (stereo not drawn),99.4
CCOc1ccc(CN2CCN(Cc3ccco3)CC2)cc1,102.0
Cc1nc(-c2cccs2)cs1,96.4
CCN(CC)C(=S)SCc1cn2cccc(C)c2n1,99.7

# 16 successive entries out of the list so far, quoted:
SMILES,Vaccinia pol inh
N#Cc1ccccc1Cn1c(=O)n(Cc2ccc(C(=O)NCc3ccco3)cc2)c(=O)c2sccc21,100.6
CC(C)C(NC(=O)c1ccc(F)cc1)C(=O)OCc1ccccc1 (stereo not drawn),91.8
CCOC(=O)C1C(=O)C=C(c2cccs2)CC1c1ccc(F)cc1 (stereo not drawn),93.1
COc1ccc2c(c1)c(C#N)c1n2CCN=C1N(C)C,104.6
Cc1ccnc(NS(=O)(=O)c2ccc(NC(=O)/C=C/c3ccccc3)cc2)n1,100.4
C=CCn1c(C2CC(=O)N(c3ccccc3)C2)nc2ccccc21 (stereo not drawn),101.1
O=C(Cc1c(F)cccc1Cl)OCC(=O)c1ccccc1,95.3
CC(=O)N(C(C)=O)c1cc(C)c(C#N)c2nc3ccccc3n12,106.8
O=C1c2ccccc2C2CC(c3cc(Cl)ccc3Cl)=NN12 (stereo not drawn),99.0
O=C(NCC1CCCO1)C1CCCCC1 (stereo not drawn),109.0
O=C(O)c1ccc(N=C2NC(=O)C(CO)(CO)S2)cc1,101.0
CCN(CC)c1ccc(NC(=O)c2ccccc2C(=O)O)cc1,107.0
Cc1ccc(Cc2ccc(NN)nn2)cc1,96.3
O=C(/C=C/c1ccccc1)C1=C(O)C(=O)N(c2ccccc2)C1c1ccccc1 (stereo not drawn),98.4
COC(=O)c1ccc(OCC(O)CN2C(C)(C)CC(O)CC2(C)C)cc1 (stereo not drawn),99.4
CCOc1ccc(CN2CCN(Cc3ccco3)CC2)cc1,102.0

# Continued.
SMILES,Vaccinia pol inh
CCOC(=O)c1c[nH]c2ccc(OC)cc2c1=O,99.7
Cc1cc(N2CCOCC2)ccc1/C=N/n1cnnc1,99.5
O=S(=O)(NCc1ccc(N2CCOCC2)cc1)c1cccs1,111.7
O=C(COC(=O)c1n[nH]c2ccccc12)NCc1ccccc1,76.5
Cc1cc([S-])c2n(cn[n+]2Cc2ccc(Cl)cc2Cl)n1,100.3
Oc1ccccc1-c1cc(-c2ccc3c(c2)OCCO3)n[nH]1,95.8
Cc1cc2c(cc1S(=O)(=O)N1CCc3ccccc31)OCC(=O)N2,102.6
O=C1/C(=C\NCc2ccccc2)S(=O)(=O)N(Cc2ccc(Cl)cc2)c2ccccc21,89.0
O=S(=O)(c1ccc(Cl)cc1Cl)N1CCCC1c1cccnc1 (stereo not drawn),91.6
COc1ccc(-c2cc(C(F)(F)F)nc(SCC(=O)N3CC4(C)CC3CC(C)(C)C4)n2)cc1 (stereo not drawn),119.9
N#Cc1cnn(-c2ccc(C(F)(F)F)cn2)c1N,100.9
O=C(CCn1nc(-c2ccc(Cl)cc2)ccc1=O)NCc1cccnc1,94.4
O=C(Nc1ccc(C(F)(F)F)cc1)OC1CN2CCC1CC2 (stereo not drawn),110.4
CC(=O)NCCSc1nc(-c2cccs2)cc(-c2ccc(F)cc2)c1C#N,102.8
c1ccc2c(c1)COC(CNC1CCCCC1)OC2,104.1
Cc1cc(C)c(S(=O)(=O)N2CCCC(C(=O)O)C2)c(C)c1 (stereo not drawn),97.2
C/C(=N\O)C(=O)Nc1cccc(C(F)(F)F)c1,101.0
CCOC(=O)c1[nH]c(COC(C)=O)c(CC)c1CC,93.3
Cc1cc(C)n(-c2ncc(S(=O)(=O)c3ccc(Cl)cc3)c(N)n2)n1,93.0
Cc1cc(C)c(C#N)c(Sc2ncnc3c2nnn3Cc2ccccc2)n1,106.1
CCOc1cccc2cc(C(=O)OC)c(=O)oc12,101.0
CCN(Cc1ccccc1)C(=O)c1nc(-c2ccc(Cl)cc2)n2c1CCCCC2,107.3
CC(C)(C)c1ccc(OCc2ccc(-c3nnco3)cc2)cc1,103.4
Nc1nonc1/C(=N/O)N1CCCCC1,99.8
CC(C)CNC(=O)COc1ccc2ccccc2c1,101.3
COc1cc2ncnc(SCC(=O)NN)c2cc1OC,102.4
CC(Oc1ccc(C=C2C(=O)c3ccccc3C2=O)cc1)C(=O)O (stereo not drawn),99.5
CCOc1ccc(-c2cc(C(=O)NC(C)c3ccc4c(c3)OCCO4)[nH]n2)cc1 (stereo not drawn),85.2
O=C(O)c1ccccc1C(=O)c1ccc(Br)cc1,99.9
CCCC(C#N)c1ccc(Cl)cc1Cl (stereo not drawn),100.5
CC(=O)CCC1C2=NC(=C\C3=NC(=C(/C)C4=NC(C)(C5[N-]/C(=C\2C)C(C)(CCC(=O)NCC(C)OP(=O)(O)O[C@@H]2[C@@H](CO)OC(n6cnc7cc(C)c(C)cc76)[C@@H]2O)C5CC(N)=O)C(C)(CC(N)=O)C4CCC(N)=O)/C(C)(CC(N)=O)C3CCC(N)=O)/C1(C)C.[CH2-][C@H]1OC(n2cnc3c(N)ncnc32)[C@H](O)[C@@H]1O.[Co+2] (stereo partly drawn),100.3
COc1cc(NC(=O)NC2(c3ccccc3)CC2)c(OC)cc1Cl,101.6
CC(C)c1ccc(NC(=O)C2=NNC(=O)CC2)cc1,82.0
O=C(CCCN1CCC2(CC1)C(=O)NCN2c1ccccc1)c1ccc(F)cc1,100.5
O=C1NC(=O)C(C(CC(=O)c2ccccc2)c2ccccc2Br)C(=O)N1 (stereo not drawn),100.3
Cn1ccnc1Sc1cnc(SCC(=O)c2ccc(Cl)cc2)nc1-c1ccccc1,100.3
COc1ccccc1-[n+]1cc([O-])on1,100.6
COC(=O)c1ccc(C2N(Cc3ccccc3)CCN2Cc2ccccc2)cc1,102.7
O=C(CC1CCCCC1)Nc1ccc2nc3n(c(=O)c2c1)CCCCC3,104.2
Cc1ccccc1CNC(=O)Cn1ncc2ccccc21,102.1
COc1ccc2[nH]c3c(N(C)C)ncnc3c2c1,64.0*
Cc1ccc(-c2noc(-c3cc(C(C)(C)C)nn3Cc3ccccc3)n2)cc1,100.5
CCOc1ccc(-n2c(=O)c3c4c(sc3n(CC(=O)N(CC)CC)c2=O)CCCCC4)cc1,101.3
CCN1C(=O)/C(=c2/sc3nc4ccccc4n3c2=O)c2ccccc21,98.6
COc1ccc(C2C3=C(CCCC3=O)N=C3c4ccccc4C(=O)C32)cc1 (stereo not drawn),99.9
COC(=O)c1sc2nc(N)c(C#N)c(-c3ccc(Cl)cc3)c2c1N,99.8
OCCN1CCN(c2nc(-c3ccccc3)c3cc(Br)ccc3n2)CC1,94.9
CCOc1cccc(NC(=O)C2CC(=O)N(/N=C(\C)c3ccc(Br)s3)C(=N)S2)c1 (stereo not drawn),91.8
O=C1N(CN2CCCCCC2)c2ccccc2C12OCCO2,99.9
CCc1cc2c3c(c(=O)oc2cc1OC)CCCC3,99.9

# (further entries)
SMILES,Vaccinia pol inh
Cc1nc2nc(COc3ccccc3)[nH]n2c(=O)c1C,99.8
O=C(Oc1cccc2ccccc12)c1ccccc1Cl,101.1
C=C(C)CNCC1OCCc2ccccc21 (stereo not drawn),94.3
COc1ccccc1N1CCN(C(=O)CC(C)c2ccccc2)CC1 (stereo not drawn),101.4
CCC(C(=O)NCc1ccc(OC)cc1OC)N1C(=O)CSc2ccc(C(C)(C)C)cc21 (stereo not drawn),109.9
CC(Oc1ccccc1)C(=O)NCc1ccco1 (stereo not drawn),85.3
Cc1cc(C)c2c(/N=N/N3CCCCCC3)[nH]nc2n1,99.8
CCC(=O)N1CCc2cc(S(=O)(=O)NC(C)C)ccc21,102.4
CC(O)(c1ccccc1)C(C)(O)c1ccccc1 (stereo not drawn),100.0
Cc1cccc(-n2nc3c(c2NC(=O)c2ccc(Br)o2)CS(=O)C3)c1C (stereo not drawn),98.7
COC(=O)c1c(N)sc2c1CCC2,93.1
O=C(Nc1ccc(-c2nnc3n2CCCCC3)cc1)c1ccccc1F,100.7
CS(=O)(=O)N1CCN(c2ncccc2C(F)(F)F)CC1,100.6
Oc1ccc(C2CC3CC2C2C=CCC32)cc1 (stereo not drawn),97.6
COc1ccccc1NC(=O)CCCN1C(=O)/C(=C\c2ccco2)SC1=S,96.6
CCC1CCCCN1Cc1c(O)ccc2cc(-c3nc4ccccc4[nH]3)c(=O)oc12 (stereo not drawn),99.6
O=C(CSc1ccc2nnc(-c3ccc(F)cc3)n2n1)c1ccccc1,101.3
CN1C(C(=O)c2ccccc2)=C(N2CCOCC2)c2ccccc2S1(=O)=O,99.9
O=C(Sc1ccc(Cl)cc1)c1cccnc1Oc1ccccc1,94.8
CC(=O)N1N=C(c2ccccc2)CC1c1ccc(F)cc1 (stereo not drawn),100.3
CCOC(=O)C1CCN(C(=O)CCc2nc3ccccc3[nH]2)CC1,102.7
O=C(CNC(=O)c1ccccc1)OCC1CCCN2CCCCC12 (stereo not drawn),100.0
O=C(Oc1ccccc1F)N1c2ccccc2Sc2ccccc21,99.8
c1ccc(Nc2nc(-c3cccs3)cs2)cc1,100.7&99.5
CCc1cc(C(=O)Cc2cnc[nH]2)c(O)cc1O,84.0
COc1ccc(C2N3CC(C)(C)CN23)cc1 (stereo not drawn),95.7
CCNC(=O)CN1C(=O)CSc2nc(C)cc(C)c21,105.3
Nc1cccc(-n2nncc2-c2ccc(Cl)cc2)c1,81.6
O=C(Nc1cccc(C(F)(F)F)c1)c1csc(-c2ccncc2)n1,102.7
CCN(CC)CC(=O)N1c2ccccc2Sc2ccccc21,113.7
CCN1Cc2cccc(C(=O)O)c2C1=O,103.6
COc1ccc(C(=O)CNc2cccc(Cl)c2C)cc1,88.3
Cc1cccn2cc(-c3cccc(Br)c3)nc12,97.6
CCOC(=O)c1n[nH]c2c1CCCC2,96.0
O[C@H](CSc1nc2ccccc2o1)C(F)(F)F,90.8
O=C(Cn1ncc2ccccc21)N1CCC2(CC1)OCCO2,103.9
CCC(=O)N1CCc2cc(S(=O)(=O)NCCC(=O)Nc3ccc(OC(F)(F)F)cc3)ccc21,100.8
N#CC(Sc1nc(-c2cccs2)cc(-c2ccccc2)c1C(=O)O)c1ccc(Cl)cc1 (stereo not drawn),100.8
CCCC(C)C1C(C#N)=C(N)OC2=C1C(=O)CC(C)(C)C2 (stereo not drawn),99.7
COc1ccc(CN2CC(C(=O)NCCN3CCN(c4ccccc4F)CC3)CC2=O)cc1 (stereo not drawn),109.5
CSc1nc2ccsc2c(=O)n1-c1ccccc1,104.2
CC1CCCN(C(=O)CSc2nc3ccccc3nc2-c2ccccc2)C1 (stereo not drawn),96.6
O=C(CC(c1ccccc1)c1ccccc1)NCc1ccccc1,99.7
COC(=O)c1cccc(N=C2N=C(N)c3ccccc32)c1,99.0
COC(=O)c1ccc2c(c1)sc(=NC(=O)c1ccc(S(=O)(=O)N3CCCCC3C)cc1)n2C (stereo not drawn),93.8
CCOC(=O)c1cnc2c(C)c(Cl)ccc2c1Nc1cc(C)ccc1OC,100.2
O=C(NCCc1c[nH]c2ccccc12)c1ccc(F)cc1F,104.2
C=CCOC(=O)c1cn(CC)c2nc(C)ccc2c1=O,99.2
CN1C(c2ccccc2)=Nc2cccc3cccc1c23,99.6
O=C(Nc1nnc(-c2cccs2)o1)c1ccc2c(c1)CCCC2,90.9

# Further entries follow:
SMILES,Vaccinia pol inh
Cc1nnc(SCC(=O)c2ccccc2)s1,97.7
CCC1CCCCN1C(=O)CSc1nnc(-c2ccccc2)o1 (stereo not drawn),99.2
Cn1nc(-c2ccc(S(=O)(=O)N3CCCN(C(=O)OC(C)(C)C)CC3)s2)cc1C(F)(F)F,96.2
CN(c1ccc(Cl)cc1)S(=O)(=O)c1cccc(C(=O)Nc2ccccc2)c1,97.6
COC(=O)C1=CN(C23CC4CC(CC(C4)C2)C3)C=C(C(=O)OC)C1c1ccc(F)cc1,100.3
CCN1C(=O)N/C(=C/c2cccn2-c2ccc(C(=O)O)cc2)C1=O,99.7
COC(=O)/C=C\c1cn(-c2ccccc2)nc1-c1ccc(OC)cc1,85.1
NC(=O)C1CCN(C(=O)CC2(CC(=O)O)CCCC2)CC1,102.7
CCC1=NN(C(=O)c2ccccc2F)C(O)(c2ccccc2)C1 (stereo not drawn),99.7
CSc1nc(SCC(=O)c2ccc3c(c2)OCO3)nc(N)c1C#N,99.7
CCc1ccc2oc(-c3ccccc3)cc(=NCc3cccnc3)c2c1,79.8*
Cc1ccc(N)c(C(O)(C(F)(F)F)C(F)(F)F)c1,102.3
CCOC(=O)c1nnn2c3ccccc3c(=O)n(C)c12,90.5
CC(Cc1ccc(O)c(O)c1)(NN)C(=O)O (stereo not drawn),95.6
CC12CCC(C(=O)N3CCCC3)(CC1=O)C2(C)C (stereo not drawn),100.8
CCC(=O)Nc1nn2c(C)nnc2s1,106.0
Cc1cc(N2CCCC2)nc2ccc(NC(=S)NC3CCCC3)cc12,103.0
C=C(CC)C(=O)c1ccc(OCC(=O)O)c(Cl)c1Cl,99.5
O=C(C1CCCO1)N1CCN(C/C=C/c2ccccc2)CC1 (stereo not drawn),100.0
CC(C)NS(=O)(=O)c1ccc(Cl)s1,99.9
